CSC inhib = cancer stem cell viability inhibitors, primary screen, luminescence; 300,000 compounds, 1.1% hits; inhibition, % at 7.5 µM; cancer stem cell-like cells viability;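 active means mean at 75% or more and at least half the replicates too; inconclusive means mean and replicates disagree; tested in HMLE shEcad cells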;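 further: 0% = median of negative and 100% = median of positive control wells; the first replicate is given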
MT1-MMP act inh = blockers of MT1-MMP proenzyme processing, primary screen, HT1080 RFP-PRO-GFP cells, GFP/RFP fluorescence. GFP/RFP ratio change, % at 20 µM. 360,000 compounds, 0.061% hits. Matrix metalloproteinase-14 (Homo sapiens), P50281. GFP/RFP ratio fluorescence, overnight; percent of plate control window, DMSO zero;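 active means GFP/RFP ratio change of at least 30% with cell ATP level not reduced by more than half and red fluorescence within 50% of control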; further: strong numbers were not always called active
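Material – HT1080 RFP-PRO-GFP cells · Control set – DMSO wells and RFP-L50D-GFP cells · Incubation – overnight cell settling, then overnight compound exposure, 37 °C, 5% CO2 · Compound dosing – single-point 20 µM compound, 1% DMSO · Read-out – GFP/RFP fluorescence ratio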
PABP FP inh = PABP poly(A) RNA binding inhibitors, primary screen, biochemical, fluorescence polarization, uHTS | Polyadenylate-binding protein 1 (Homo sapiens), P11940 | 290,000 compounds, 1% hits | inhibition, % at 35 µM | AID 2014, 2009;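 active means 50% or more with normal probe brightness, or confirmed in later tests; inconclusive means above 50% with abnormal brightness, or retests that disagree; inactive means below 50% or failed in later tests; about a fifth of its hits are not listed in these tables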;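 further: calls also rest on retests at 20 µM and on dose response follow-up; controls were probe without protein and protein plus probe with vehicle; some compounds called inactive have numbers as strong as hits; many hits fall short of the cut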
Rce1 inhib = yeast Rce1p protease inhibitors, primary screen, biochemical, fluorescence, cell-free homogeneous; yeast membranes, quenched prenylated peptide cleavage fluorescence; calls only; 290,000 compounds, 0.27% hits;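 active means fall in fluorescence gain of 50% or more versus controls, with final raw signal at or below 3038400; inconclusive means same 50% fall but final raw signal above 3038400; inactive means fall in fluorescence gain under 50%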;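 further: plate controls were neutral control wells for no effect and wells lacking membranes for full effect; tested at 10 µM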
Target sequence (Q03530 whole entry, looked up): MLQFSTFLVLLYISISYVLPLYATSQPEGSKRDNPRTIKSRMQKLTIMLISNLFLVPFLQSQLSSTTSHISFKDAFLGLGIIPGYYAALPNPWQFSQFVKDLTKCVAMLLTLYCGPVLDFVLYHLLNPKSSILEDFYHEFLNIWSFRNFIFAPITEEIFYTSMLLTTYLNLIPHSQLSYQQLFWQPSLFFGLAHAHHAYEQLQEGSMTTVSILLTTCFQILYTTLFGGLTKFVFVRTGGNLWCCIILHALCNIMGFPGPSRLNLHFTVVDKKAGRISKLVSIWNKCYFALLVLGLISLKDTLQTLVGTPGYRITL
UUG fidelity = modulators of yeast start codon fidelity, primary screen, whole organism, S. cerevisiae, single point, plate reader. S. cerevisiae UUG-firefly luciferase reporter, luminescence/redox ratio. activity score, % at 18.7 µM. 350,000 compounds, 0.13% hits. AID 602363, 2012;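 active means replicate mean at a twofold rise or more, about +100% in these data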;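 further: firefly luciferase made from a UUG start codon reports start codon fidelity; reporter light over untreated wells divided by growth signal over untreated wells; some hits fall short of that in this replicate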
Env fusion inh = inhibitors of HIV-1 Env-driven cell-cell fusion, primary screen, HeLa-JRFL effector, CEM21 target cells, luciferase; inhibition, % at 12.3 µM; 360,000 compounds, 1.1% hits; AID 651610, 2012;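 active means mean replicate inhibition score of at least 50 and every replicate individually at or above 50; inconclusive means only one of the two criteria met; inactive means mean below 50 and not all replicates reaching 50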;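 further: 0% = plate neutral controls and 100% = maraviroc near 300 nM; one replicate is shown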
eIF4H FP inh = human eIF4H binding inhibitors, primary screen, translation initiation inhibitor project, biochemical, uHTS, fluorescence polarization; Eukaryotic translation initiation factor 4H (Homo sapiens), Q15056; eIF4H fluorescence polarization binding assay; inhibition, % at 35 µM; 290,000 compounds, 0.94% hits; AID 2012, 2009;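 active means 50% or more with normal probe brightness, or confirmed in later tests; inconclusive means above 50% with abnormal brightness, or retests that disagree; inactive means below 50% or failed in later tests; about a fifth of its hits are not listed in these tables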;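 further: calls also rest on retests at 20 µM and on dose response follow-up; 0% = protein and probe with vehicle and 100% = probe without protein; strong numbers were not always called active; many hits fall short of the cut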
MT1-MMP act inh RFP = second read-out of MT1-MMP act inh, no call of its own (marks repeat the call); RFP signal change, %; measured here: RFP expression control read;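 0 = vehicle wells; hits needed this value within 50% of zero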
* = called active by the depositor; i = inactive; u = inconclusive; x = not tested or not shown.

SMILES | CSC inhib | MT1-MMP act inh | MT1-MMP act inh RFP | PABP FP inh | Rce1 inhib | UUG fidelity | Env fusion inh | eIF4H FP inh
CCN(CC(=O)NC1CC1)S(=O)(=O)c1ccc(OC)cc1 | -10 | -4 | 5 | -2 | i | -14 | -7 | -5
CCC(C)c1ccc(N(CC(=O)NC(C)(C)C)C(=O)CNC(=O)c2cccs2)cc1 (centres undefined) | -6 | -5 | -5 | 6 | i | -8 | 42 | 5
CCOc1ccc(NC(=O)CN(C)C(=O)C2CCN(C(=O)Nc3ccccc3)CC2)cc1OCC | x | -2 | -1 | x | x | -7 | 16 | x
COc1ccc(NC(=O)CS(=O)(=O)c2ccc(C)cc2)c(OC)c1 | -9 | -4 | 1 | -10 | i | 10 | -28 | -3
Cc1ccc(C)c(N2CCN(C(=O)CN(C)S(=O)(=O)c3cnc[nH]3)CC2)c1 | -14 | -2 | 0 | 14 | i | -5 | x | -1
COC(=O)Nc1nnc(CCc2ccccc2)s1 | 6 | 1 | -1 | 15 | i | -9 | x | 2
CCOC(=O)c1ccccc1Cc1nc2ccccc2c(=O)[nH]1 | -11 | -8 | -1 | -3 | i | -15 | 2 | 1
Cc1ccc([C@H]2C[C@@H](O)[C@H](n3cc(C4CC4)nn3)CN2Cc2cccs2)cc1 | x | 5 | -1 | x | x | -26 | 7 | x
CCn1c(NC(=O)c2ccc(C)cc2)c2ccccc2nc1=O | -2 | 3 | 2 | -6 | i | x | x | -2
Cc1ccc(C2CC(=O)N(c3ccc(F)cc3)C3=C2C(=O)CCC3)cc1 (centres undefined) | -12 | 3 | 2 | 0 | i | -1 | -35 | -6
CCCS(=O)(=O)N1CCN(Cc2ccccc2[N+](=O)[O-])CC1 | -5 | 2 | 4 | -2 | i | x | -1 | 4
CCn1c(SCc2nc(-c3ccc(Cl)cc3)no2)nnc1-c1ccco1 | x | 1 | -7 | -4 | i | -8 | 29 | -2

Continued; the last two above are carried over.
SMILES | CSC inhib | MT1-MMP act inh | MT1-MMP act inh RFP | PABP FP inh | Rce1 inhib | UUG fidelity | Env fusion inh | eIF4H FP inh
CCCS(=O)(=O)N1CCN(Cc2ccccc2[N+](=O)[O-])CC1 | -5 | 2 | 4 | -2 | i | x | -1 | 4
CCn1c(SCc2nc(-c3ccc(Cl)cc3)no2)nnc1-c1ccco1 | x | 1 | -7 | -4 | i | -8 | 29 | -2
Cc1ccc(-n2c(SCC(=O)NCc3ccco3)nc3c(sc4ccccc43)c2=O)cc1 | x | 1 | 2 | 1 | i | -11 | -95 | 1
O=C(CSc1nnc(COc2cccc3ccccc23)o1)N1c2ccccc2CCc2ccccc21 | -5 | -9 | -9 | -8 | i | 0 | x | -5
O=C(NCc1cccs1)C1CCC(=O)N(Cc2cccc(C(F)(F)F)c2)C1 (centres undefined) | -5 | 0 | -4 | 4 | i | -10 | 9 | -4
COc1ccc(S(=O)(=O)N(CC(=O)N2CCOCC2)Cc2ccccc2)cc1C | 0 | -3 | -2 | 0 | i | -5 | -50 | 8
CCCNC(=O)CCc1c(C)nc2c(c(C)nn2-c2ccc(C)cc2)c1C | -5 | -3 | -6 | -1 | i | -8 | 27 | 3
Cn1cccc1C(=O)NCc1ccc(Cl)cc1 | 7 | 1 | 1 | -3 | x | 5 | -5 | -13
COc1ccc(C2CC(c3cccc(Cl)c3)n3nc(N)nc3N2)cc1 (centres undefined) | -11 | -2 | -1 | 3 | i | -12 | 8 | 2
COCC1CCN(c2nc3nonc3nc2N2CCSCC2)C1 (centres undefined) | 3 | -3 | 4 | 10 | x | -14 | -20 | 2
COC(=O)c1ccc(-c2noc(CN(Cc3ccncc3)CC3CCCO3)n2)cc1 (centres undefined) | -3 | 1 | -4 | -5 | i | x | -5 | -10
CCC(C)c1ccc(NC(=O)N2CCOCC2)cc1 (centres undefined) | -5 | -2 | 1 | -4 | i | 2 | -4 | -8
O=C(COC(=O)c1ccc(S(=O)(=O)C(F)F)cc1)Nc1cccnc1Cl | -11 | 7 | 1 | x | i | x | -1 | x
O=C(O)c1ccc(CSc2nnnn2-c2ccc(F)cc2)cc1 | -18 | 3 | 0 | 4 | i | x | u | 2
COc1cccc(NC(=O)CN(C)C(=O)/C=C/c2cn(-c3ccccc3)nc2-c2ccc(C)cc2)c1 | -3 | -4 | -13 | x | i | x | 5 | x
N=c1c(S(=O)(=O)c2ccc(Br)cc2)cc2c(=O)n3ccccc3nc2n1C1CCCCC1 | -1 | -7 | -8 | 14 | i | -10 | -1 | 0
COc1ccc(-n2c(=S)[nH]c3cc(C(=O)NCCCN4CCOCC4)ccc3c2=O)c(OC)c1 | -7 | 2 | 2 | 0 | i | -16 | 9 | 9
COc1ccc(CNCC(O)(c2ccccc2)c2ccc(Cl)cc2)cc1 (centres undefined) | 10 | -2 | -7 | -11 | i | 2 | -96 | -3
O=C(N/N=C/C(Br)=C\c1ccccc1)c1cccs1 | 53 | 5 | 1 | -3 | i | -21 | -86 | 0
CN(C(=O)CSc1nnc(-c2cccs2)n1C1CC1)C1CCS(=O)(=O)C1 (centres undefined) | x | 0 | 3 | x | x | 0 | -9 | x
O=C(OCC(=O)N1CCc2ccccc21)c1c2c(nc3ccccc13)CCCC2 | 23 | -1 | -5 | 9 | i | -2 | 36 | -1
CCOc1cccc(C(=O)Nc2nnc(-c3cccs3)s2)c1 | -7 | 4 | 3 | 17 | i | -9 | x | -6
COc1ccc(/C=N/NC(=O)CN2CCCc3ccccc32)c(OC)c1 | 2 | 1 | 3 | -9 | i | 1 | -2 | 5
O=C(Nc1ccc(Nc2ccccc2)cc1)c1ccc(Br)o1 | x | 12 | 1 | -6 | i | -9 | -43 | 5
CC(OC(=O)CSc1ccc(F)cc1)C(=O)NC1(C#N)CCCCC1 (centres undefined) | 3 | 5 | 14 | -9 | i | -11 | x | -1
Cc1ccc(SCc2cc(=O)[nH]c(SCC(=O)Nc3cc(Cl)ccc3Cl)n2)cc1 | 47 | -2 | 6 | 0 | i | x | -5 | 4
COc1cc2c(cc1OC)C(c1cc3cccc(C)c3[nH]c1=O)N(C(=O)c1ccco1)CC2 (centres undefined) | x | -2 | -2 | 0 | i | 14 | -2 | -14
Cc1ccc(OCCSc2nc3ccccc3n2CC(=O)O)c(C(C)C)c1 | -4 | 5 | 1 | 6 | i | -3 | 0 | -4
COc1ccc(-c2csc(-c3cccnc3)n2)cc1C | 5 | -1 | 3 | 0 | i | -21 | -98 | 1
C=CCN1C(=O)/C(=C\c2ccc(Oc3nc(N4CCOCC4)nc(N4CCOCC4)n3)c(OC)c2)SC1=S | 9 | 1 | -2 | -2 | i | -10 | 17 | -8
C/C(N)=C(/C#N)C(=O)CSc1nc2ccccc2c(=O)n1CCCOC(C)C | -2 | -1 | 1 | 3 | i | x | 14 | -4
COc1ccc(NC(=O)CSc2n[nH]c(=O)n2C2CC2)cc1Cl | x | 3 | 2 | x | x | -6 | -122 | x
O=C(NCC1CCCO1)c1cc(S(=O)(=O)Nc2ccc(Br)cc2)ccc1Cl (centres undefined) | -6 | -1 | -8 | -15 | i | x | -6 | -15
COc1cc(Cl)cc(C2NC(=O)NC(C)=C2C(=O)NCc2ccccc2)c1O (centres undefined) | -6 | -7 | -2 | 25 | i | -16 | x | -4
Cc1cccc(NC(=O)c2ccc(NC(=O)CC3SC(N4CCCC4)=NC3=O)cc2)n1 (centres undefined) | 10 | 1 | 1 | x | x | -1 | 16 | x
Cc1c(C(=O)OCCOc2ccccc2)[nH]c2c1C(=O)CCC2 | 7 | -7 | -25 | -8 | i | -44 | x | 0
COc1cc2oc3ccccc3c2cc1N(CC(=O)N(C)C)S(=O)(=O)c1ccc(C)cc1 | -16 | -1 | 1 | -9 | i | -3 | x | -3
Cc1c[n+](C)ccc1CC1C([N+](=O)[O-])=C[N-]c2ncnn21 (centres undefined) | x | -4 | 4 | -2 | x | 0 | 17 | 21

A few values from above:
MT1-MMP act inh RFP result of COc1cc2oc3ccccc3c2cc1N(CC(=O)N(C)C)S(=O)(=O)c1ccc(C)cc1 = 1
Env fusion inh result of C=CCN1C(=O)/C(=C\c2ccc(Oc3nc(N4CCOCC4)nc(N4CCOCC4)n3)c(OC)c2)SC1=S = 17
MT1-MMP act inh RFP result of COc1ccc(-c2csc(-c3cccnc3)n2)cc1C = 3

Reprinted at random: 5 records from the list.
SMILES | CSC inhib | MT1-MMP act inh | MT1-MMP act inh RFP | PABP FP inh | Rce1 inhib | UUG fidelity | Env fusion inh | eIF4H FP inh
COc1ccc(NC(=O)CS(=O)(=O)c2ccc(C)cc2)c(OC)c1 | -9 | -4 | 1 | -10 | i | 10 | -28 | -3
COc1cc2c(cc1OC)C(c1cc3cccc(C)c3[nH]c1=O)N(C(=O)c1ccco1)CC2 (centres undefined) | x | -2 | -2 | 0 | i | 14 | -2 | -14
O=C(Nc1ccc(Nc2ccccc2)cc1)c1ccc(Br)o1 | x | 12 | 1 | -6 | i | -9 | -43 | 5
COc1ccc(C2CC(c3cccc(Cl)c3)n3nc(N)nc3N2)cc1 (centres undefined) | -11 | -2 | -1 | 3 | i | -12 | 8 | 2
COc1ccc(-c2csc(-c3cccnc3)n2)cc1C | 5 | -1 | 3 | 0 | i | -21 | -98 | 1

(further entries)
SMILES | CSC inhib | MT1-MMP act inh | MT1-MMP act inh RFP | PABP FP inh | Rce1 inhib | UUG fidelity | Env fusion inh | eIF4H FP inh
O=C(CSc1nc(N2CCCCC2)nc(N2CCCCC2)n1)Nc1nccs1 | -10 | 6 | 5 | 4 | i | -20 | x | 6
Cc1c(CN(C)C(=O)/C=C/c2ccc([N+](=O)[O-])cc2)cnn1C | 5 | 5 | 2 | 3 | i | x | 5 | -3
Cc1cc(C)c(NC(=S)NCCO)c(C)c1 | -12 | 2 | 2 | -3 | i | x | -12 | 5
O=C(c1cc(-c2ccccc2)nc2ccccc12)N1CCc2ccccc2C1 | 56 | 0 | -1 | -18 | i | x | 16 | -1
COc1ccc(C2Nc3ccccc3C(=O)N2Cc2ccco2)cc1COc1ccc([N+](=O)[O-])cc1 (centres undefined) | -6 | -3 | -14 | 3 | i | x | x | -16
C=CCN1C(=O)c2ccccc2C1(O)Cc1ccccc1 (centres undefined) | x | 1 | 0 | 14 | i | -1 | 1 | 2
CC(C)C[C@H](NC(=O)OC(C)(C)C)c1nnc(SCC(=O)Nc2ccc(Br)cc2)o1 | -9 | -4 | -3 | -3 | i | 6 | 6 | -7
CCCS(=O)(=O)NC(=O)C1(C)CCCN(C(=O)c2ccncc2)C1 (centres undefined) | x | -3 | 6 | x | x | -8 | 8 | x
OC(c1cccnc1)c1nc(-c2ccc3c(c2)OCO3)cs1 (centres undefined) | x | -1 | -2 | x | x | -33 | -1 | x

Source: PubChem BioAssay

Not a hit list. Share with any hit: about 3%.
